Source: PubChem BioAssay (several laboratories)
Yeast UUG start: modulators of yeast start codon fidelity, primary screen, whole organism, S. cerevisiae, single point, plate reader | S. cerevisiae UUG-firefly luciferase reporter, luminescence/redox ratio | activity score, % at 18.7 µM | 0.13% of 350,000 active | AID 602363, 2012;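 active = replicate mean at a twofold rise or more, about +100% in these data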;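 also: firefly luciferase made from a UUG start codon reports start codon fidelity; reporter light over untreated wells divided by growth signal over untreated wells; some hits fall short of that in this replicate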
CSC inhib: cancer stem cell viability inhibitors, primary screen, luminescence; cancer stem cell-like cells viability; inhibition, % at 7.5 µM; 1.1% of 300,000 active;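 active = mean at 75% or more and at least half the replicates too; tested in HMLE shEcad cells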;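 also: 0% = median of negative and 100% = median of positive control wells; the first replicate is given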
Rce1 inh: yeast Rce1p protease inhibitors, primary screen, biochemical, fluorescence, cell-free homogeneous; CAAX prenyl protease 2 (Saccharomyces cerevisiae (strain ATCC 204508 / S288c)), Q03530; yeast membranes, quenched prenylated peptide cleavage fluorescence; calls only; 0.27% of 290,000 active;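 active = fall in fluorescence gain of 50% or more versus controls, with final raw signal at or below 3038400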;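 also: plate controls were neutral control wells for no effect and wells lacking membranes for full effect; tested at 10 µM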
HIV Env fusion: inhibitors of HIV-1 Env-driven cell-cell fusion, primary screen, HeLa-JRFL effector, CEM21 target cells, luciferase; 1.1% of 360,000 active; inhibition, % at 12.3 µM;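 active = mean replicate inhibition score of at least 50 and every replicate individually at or above 50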;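 also: 0% = plate neutral controls and 100% = maraviroc near 300 nM; one replicate is shown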
PABP polyA inh: PABP poly(A) RNA binding inhibitors, primary screen, biochemical, fluorescence polarization, uHTS | Polyadenylate-binding protein 1 (Homo sapiens), P11940 | inhibition, % at 35 µM | 1% of 290,000 active | AID 2014, 2009;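 active = 50% or more with normal probe brightness, or confirmed in later tests; about a fifth of its hits are not listed in these tables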;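 also: calls also rest on retests at 20 µM and on dose response follow-up; controls were probe without protein and protein plus probe with vehicle; some compounds called inactive have numbers as strong as hits; many hits fall short of the cut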
Target sequence (P11940 whole entry, looked up): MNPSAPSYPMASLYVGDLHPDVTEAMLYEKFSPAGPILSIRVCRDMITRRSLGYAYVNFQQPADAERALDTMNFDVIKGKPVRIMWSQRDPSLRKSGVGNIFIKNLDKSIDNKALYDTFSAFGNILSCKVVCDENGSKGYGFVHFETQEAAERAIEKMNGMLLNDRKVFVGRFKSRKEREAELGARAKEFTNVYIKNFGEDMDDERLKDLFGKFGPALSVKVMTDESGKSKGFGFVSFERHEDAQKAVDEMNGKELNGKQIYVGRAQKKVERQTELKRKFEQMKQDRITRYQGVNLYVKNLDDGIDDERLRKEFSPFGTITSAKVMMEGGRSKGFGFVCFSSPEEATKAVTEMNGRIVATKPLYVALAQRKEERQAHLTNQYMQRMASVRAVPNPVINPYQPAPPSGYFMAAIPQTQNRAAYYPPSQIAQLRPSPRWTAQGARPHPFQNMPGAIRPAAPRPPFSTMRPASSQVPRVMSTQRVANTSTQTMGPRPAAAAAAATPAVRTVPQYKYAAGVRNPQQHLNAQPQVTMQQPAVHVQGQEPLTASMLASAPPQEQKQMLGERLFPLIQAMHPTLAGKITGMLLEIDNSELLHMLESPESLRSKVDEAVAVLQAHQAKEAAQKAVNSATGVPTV
MT1-MMP act inh: blockers of MT1-MMP proenzyme processing, primary screen, HT1080 RFP-PRO-GFP cells, GFP/RFP fluorescence; GFP/RFP ratio change, % at 20 µM; Matrix metalloproteinase-14 (Homo sapiens), P50281; 0.061% of 360,000 active; AID 651647, 2012; GFP/RFP ratio fluorescence, overnight; percent of plate control window, DMSO zero;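 active = GFP/RFP ratio change of at least 30% with cell ATP level not reduced by more than half and red fluorescence within 50% of control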; also: strong numbers were not always called active
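Material: RFP-PRO-GFP reporter HT1080 cells. Dosing: single-point 20 µM compound, 1% DMSO. Controls: DMSO and RFP-L50D-GFP cell wells. Timing: cells overnight before dosing, compound overnight, 37 °C, 5% CO2. Measure: GFP/RFP fluorescence ratio.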
eIF4H FP inh: human eIF4H binding inhibitors, primary screen, translation initiation inhibitor project, biochemical, uHTS, fluorescence polarization; Eukaryotic translation initiation factor 4H (Homo sapiens), Q15056; inhibition, % at 35 µM; AID 2012, 2009; 0.94% of 290,000 active; eIF4H fluorescence polarization binding assay;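 active = 50% or more with normal probe brightness, or confirmed in later tests; about a fifth of its hits are not listed in these tables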;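 also: calls also rest on retests at 20 µM and on dose response follow-up; 0% = protein and probe with vehicle and 100% = probe without protein; strong numbers were not always called active; many hits fall short of the cut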
eIF4H FP inh retest: recorded beside eIF4H FP inh, whose call it bears; inhibition, %; compound at 20 µM; confirmation average;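 mean of two retest wells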
PABP polyA inh retest: also measured in PABP polyA inh; calls as there; inhibition, %; compound at 20 µM; confirmation repeats;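 mean of two retest wells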
MT1-MMP act inh RFP: also measured in MT1-MMP act inh; calls as there; RFP signal change, %; measured here: RFP expression control read;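 0 = vehicle wells; hits needed this value within 50% of zero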
* marks the source's active call; other numbers are inactive results; i = inactive; . = not tested or not shown; & = joins results of further samples.

SMILES | Yeast UUG start | CSC inhib | Rce1 inh | HIV Env fusion | PABP polyA inh | MT1-MMP act inh | MT1-MMP act inh RFP | eIF4H FP inh | others
COc1ccc(NC(=O)NN(C(=O)c2ccccc2)C(C)(C)C)cc1 | -15 | -3 | i | -7 | -7 | -2 | 4 | -11
O=C(c1cccc(C(F)(F)F)c1)N(c1ccccn1)C1CCCCC1 | . | 1 | i | 28 | -10 | -4 | -6 | -3
CC(=O)Nc1ccc(S(=O)(=O)NCC(=O)OCC(=O)N2CCCc3ccccc32)cc1 | . | -4 | i | 1 | -14 | 0 | 0 | 4
CC(=O)Nc1ccc(C2=NN(Cc3nnc(-c4ccccc4)o3)C(=O)SC2)cc1 | 1 | 50 | i | 18 | -2 | -2 | -3 | 10
COc1ccccc1NS(=O)(=O)c1ccc(NC(=O)CCNC(=O)c2ccco2)cc1 | -5 | -3 | i | -8 | 6 | 0 | 6 | 4
Cc1onc(-c2c(Cl)cccc2Cl)c1/C(N)=N/OC(=O)C(C)(C)C | . | . | i | -2 | 4 | 6 | 0 | -3
Cc1ccccc1CNCc1ccc2c(c1)OCO2 | -7 | . | i | 6 | -10 | 2 | 6 | 4
COc1nc(OC)nc(Oc2ccc([N+](=O)[O-])cc2Cl)n1 | . | 4 | i | -41 | 1 | -4 | -2 | 10
Cc1n[nH]c(C)c1CN(C)C(=O)C1CCC(=O)N(CC2CCCCC2)C1 (centres undefined) | 10 | -3 | i | -2 | 5 | 1 | -1 | -1
CCOC(=O)c1cc(C#N)c(SCC(=O)Nc2ccc(C(C)=O)cc2)[nH]c1=O | . | 0 | i | -3 | 14 | 1 | -3 | -3
C[C@@H]1CN([C@@H](C)CO)C(=O)c2cc(NC(=O)c3ccccc3)ccc2O[C@@H](C)CCCCO[C@@H]1CN(C)Cc1ccc(C(F)(F)F)cc1 | 13&10 | . | . | -8 | . | 8 | -10 | .
Cc1nn(C)c(C)c1S(=O)(=O)N1CCC(C(=O)NC(C)c2ccccc2)CC1 (centres undefined) | -7 | -6 | i | -14 | -6 | -3 | 6 | -1
Cc1cccc(C)c1NC(=O)CNC(=O)c1cncc(Br)c1 | -24 | -11 | i | -3 | -3 | 1 | 0 | 100 | eIF4H FP inh retest=-7;PABP polyA inh retest=8
CC(=O)C1=CCC(c2ccccc2Cl)N(S(=O)(=O)c2ccc(C)cc2)C1 (centres undefined) | -4 | . | . | -5 | . | -1 | -14 | .
COc1cccc(-c2cnc3c(NC(C)=O)cc(-c4cccc(NS(C)(=O)=O)c4)cn23)c1 | -17 | . | . | 36 | . | 5 | 0 | .
COc1ccc(-c2csc(NC(=O)CN3C(=O)NC4(CCCC4)C3=O)n2)cc1OC | -5 | -8 | i | -9 | . | 9 | 0 | .
N/C(=N\NS(=O)(=O)c1ccc(Cl)cc1)c1ccccn1 | . | -10 | i | -27 | . | 2 | -2 | .
CNC(=O)CSc1nc(-c2ccccc2)c(-c2ccccc2)[nH]1 | -31 | -10 | i | -33 | 1 | 7 | -2 | 2
O=C(c1ccc(=O)oc1)N1CCN(C(c2ccccc2)c2ccccc2)CC1 | 0 | -8 | i | 6 | 0 | -30 | -7 | 2
CCc1ccc(NC(=O)C/C(C)=N/NC(=O)COc2ccc(C)cc2Br)cc1 | -16 | . | i | 16 | 10 | -1 | 0 | 4
O=S(=O)(NC1CCN(Cc2ccccc2)CC1)c1cccc2cccnc12 | -4 | -3 | i | . | -4 | . | . | 2
Cc1ccc(S(=O)(=O)NCC2CCC(C(=O)NCc3ccco3)CC2)cc1 (centres undefined) | -14 | -8 | i | . | 18 | -4 | 1 | 6
COc1cc(/C=N/NC(=O)c2cccc(S(=O)(=O)N3CCCCC3)c2)cc(Br)c1O | . | . | i | -4 | 0 | 1 | -11 | 5
O=C(c1cnn2c(C(F)F)cc(-c3ccccc3)nc12)N1CCc2ccccc2C1 | . | 28 | . | 17 | -8 | -4 | -5 | 6
CCN(CC)c1ccc(C(=O)c2cnc(/N=C/N(C)C)s2)cc1 | -30 | 8 | i | -4 | 4 | -6 | -4 | -2

Next part (5 carried over from the part before).
SMILES | Yeast UUG start | CSC inhib | Rce1 inh | HIV Env fusion | PABP polyA inh | MT1-MMP act inh | MT1-MMP act inh RFP | eIF4H FP inh | others
O=S(=O)(NC1CCN(Cc2ccccc2)CC1)c1cccc2cccnc12 | -4 | -3 | i | . | -4 | . | . | 2
Cc1ccc(S(=O)(=O)NCC2CCC(C(=O)NCc3ccco3)CC2)cc1 (centres undefined) | -14 | -8 | i | . | 18 | -4 | 1 | 6
COc1cc(/C=N/NC(=O)c2cccc(S(=O)(=O)N3CCCCC3)c2)cc(Br)c1O | . | . | i | -4 | 0 | 1 | -11 | 5
O=C(c1cnn2c(C(F)F)cc(-c3ccccc3)nc12)N1CCc2ccccc2C1 | . | 28 | . | 17 | -8 | -4 | -5 | 6
CCN(CC)c1ccc(C(=O)c2cnc(/N=C/N(C)C)s2)cc1 | -30 | 8 | i | -4 | 4 | -6 | -4 | -2
Cc1ccc(Cc2c(-c3ccccc3)nc3cc(C)c(Br)c(C)n23)cc1 | -6 | . | . | 12 | . | -1 | -6 | .
COc1ccc(C(=O)NCc2nnc(SCC(=O)NC3CCCCC3)o2)cc1 | -14 | -5 | i | 1 | 18 | 2 | 1 | 0
CC(C)(C)c1ccc(OCCC(=O)OCC(=O)NCc2ccccc2)cc1 | -1 | 2 | i | 13 | . | 7 | 4 | .
CCOC1=C2[C@@H](CN(S(=O)(=O)c3ccc(C)cc3)[C@H]2c2ccc(CC)cc2)[C@H]2C(=O)N(c3ccccc3)C(=O)[C@H]2C1 | -9 | . | . | -29 | . | -5 | -2 | .
COc1ccc(CN(C)C(=O)c2ccc(COc3ccccc3)cc2)c(OC)c1 | 13 | 4 | i | 13 | -6 | 3 | -9 | -14
OC(c1ccc(F)c(F)c1)c1ncc(-c2ccc(Cl)cc2)[nH]1 (centres undefined) | -11 | . | . | 6 | . | 5 | -3 | .
Cc1cc(NC(=O)CSc2ccc(F)cc2)no1 | . | . | i | 2 | -7 | -2 | 4 | -8
CCN(C(=O)CSc1nccn1C)c1cccc2ccccc12 | -18 | -18 | . | 3 | . | 0 | 1 | .
C[C@]12c3[nH]c4ccc(Cl)cc4c3CCN1C(=O)[C@@H](CC(=O)NCc1cccc(C(F)(F)F)c1)C[C@@H]2C(=O)N1CCOCC1 | 2 | . | . | -52 | . | -17 | -20 | .
Cc1[nH]c2ccccc2c1/C=N/NC(=O)CNC(=O)c1ccco1 | -20 | -17 | i | 2 | -10 | 3 | 5 | 1
Cc1ccc(-c2cnc(NC(=O)CCC(=O)N3CCCCC3)n2C)cc1 | -28 | 6 | . | -209 | -10 | -1 | 2 | 0
Cc1ccc(C(=O)Nc2ccccc2N2CCN(C(=O)C(C)C)CC2)cc1C | -5 | 10 | i | 22 | -3 | -4 | -11 | 8
C#CCN(C)CCCOc1ccc(Cl)cc1Cl | -25 | 3 | i | -20 | 4 | 4 | 1 | 5
CCCOC(=O)/C=C/c1c(C)[nH]c(=O)[nH]c1=O | -12 | 2 | i | -16 | -6 | 4 | 5 | 7
CC(C(=O)Nc1ccccc1Sc1ccccc1)N(c1ccccc1)S(C)(=O)=O (centres undefined) | -5 | 1 | i | . | 6 | . | . | -4
COc1ccc(C2CC(=O)Oc3c(C(CCN4CCCC(C)C4)c4ccc(N(C)C)cc4)c(OC)cc(OC)c32)cc1 (centres undefined) | -1 | 12 | i | 5 | 0 | 4 | 2 | 4
COc1cc(CO)ccc1OCC(=O)Nc1cccc2ccccc12 | -16 | -13 | i | -3 | -7 | 6 | 3 | 1
O=C(c1ccc2ccccc2n1)N1CCN(c2ccccc2O)CC1 | . | -9 | i | . | 13 | 0 | 2 | 7
O=C(c1ccco1)N1CCN(c2c(-c3ccccc3)c3cc(Cl)ccc3[nH]c2=O)CC1 | -20 | -4 | i | -6 | -10 | -13 | -15 | 5
CC(C)CC(=O)NC(=S)Nc1ccc(CN2CCOCC2)cc1 | -12 | 2 | i | -10 | -1 | -3 | 1 | 5
CCCCOC(=O)c1ccc(NC(=O)COC(=O)C2CSC3(C)CCC(=O)N23)cc1 (centres undefined) | . | 9 | i | 2 | . | -2 | 4 | .
COc1ccc(N2CCN(C(=O)COC(=O)c3oc4ccc(OC)cc4c3C)CC2)cc1 | -11 | . | i | 7 | . | 9 | -7 | .
CC(C)NC(=O)C1(C)CCN1C(=O)c1cccc(F)c1 (centres undefined) | -17 | . | . | -6 | . | 0 | 2 | .
CSc1cccc(NC(=O)Cn2cccc2)c1 | -14 | -6 | i | -14 | 3 | -3 | -3 | -1
O=C(N/C(=C/c1cccc(Br)c1)C(=O)N1CCCCC1)c1ccco1 | -8 | . | . | 20 | . | -5 | -2 | .

The list continues.
SMILES | Yeast UUG start | CSC inhib | Rce1 inh | HIV Env fusion | PABP polyA inh | MT1-MMP act inh | MT1-MMP act inh RFP | eIF4H FP inh | others
Cc1nn(CC(=O)N2CCN(c3cccc(C(F)(F)F)c3)CC2)c(=O)c2cccn12 | 10 | -1 | i | 13 | 4 | -10 | -4 | -8
Cc1c(NC(=O)c2n[nH]c(=O)c3ccccc23)c(=O)n(-c2ccccc2)n1C | -12 | -10 | i | 4 | 1 | 5 | 6 | -5
CCN(CC)c1ccc(/C=N/NC(=O)c2ccoc2C)cc1 | -41 | 6 | i | -92 | 4 | 2 | -3 | -2
O=C(Cc1cccs1)N/N=C/c1ccc(OCc2ccccc2)cc1 | . | 24 | i | 0 | -14 | 3 | -3 | -4
CN(C(=O)COC(=O)c1cc(S(=O)(=O)N(C)C)ccc1Cl)C1CCS(=O)(=O)C1 (centres undefined) | . | 1 | i | . | . | 1 | 3 | .
CC(NC(=O)c1cc(F)c(F)cc1Cl)C1CC2CCC1C2 (centres undefined) | -3 | 1 | i | 5 | -2 | -2 | 0 | -5
O=C(CO)N/N=C/c1ccccc1F | -7 | 0 | i | . | -9 | 1 | 2 | -8
O=Cc1ccccc1OCc1nnsc1Cl | . | -8 | . | 2 | 2 | -4 | -2 | -2
Fc1ccc(Oc2cc(N3CCOCC3)nc(-c3ccccc3)n2)c(F)c1 | -14 | 2 | i | . | 2 | -3 | -9 | -5
Cc1cc(C)cc(OCC(=O)Nc2nc(-c3ccccn3)cs2)c1 | -17 | . | . | -24 | . | -2 | 2 | .

Structural class: those above with two or more sulfur atoms (two)
SMILES | Yeast UUG start | CSC inhib | Rce1 inh | HIV Env fusion | PABP polyA inh | MT1-MMP act inh | MT1-MMP act inh RFP | eIF4H FP inh | others
CC(C(=O)Nc1ccccc1Sc1ccccc1)N(c1ccccc1)S(C)(=O)=O (centres undefined) | -5 | 1 | i | . | 6 | . | . | -4
CN(C(=O)COC(=O)c1cc(S(=O)(=O)N(C)C)ccc1Cl)C1CCS(=O)(=O)C1 (centres undefined) | . | 1 | i | . | . | 1 | 3 | .
